Assay outcomes as filed in PubChem.
LANA-H2A inh = blocks KSHV LANA binding to histone H2A/H2B. 320,000 tested, 0.6% active. inhibition, % (concentration not given with the values). cell-free LANA-H2A/H2B peptide, fluorescence polarization; in the data active = inhibition mostly above about 10%, no sharp cut-off; inactive = mostly below about 6.7%;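 also: stock transfer was 7.5 nL into about 10 µL; 0% = median of vehicle wells and 100% = median of positive control wells; one replicate is shown; the record names a cut of 25% in any replicate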
Beta cell apopt = beta cell apoptosis inhibition | protection from apoptosis, % (no concentration beside the values) | AID 435005 | 300,000 tested, 0.8% active | INS-1E cytokine-induced death, ATP luminescence, 48 h; percent of positive-control rescue, neutral wells zero;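 active = all replicates at 75% or more, or half of them and the mean; inconclusive = half reach 75% but not the mean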;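 also: 0% = cytokine-treated negative control wells and 100% = positive control rescue; higher means more ATP so stronger rescue from cytokine killing; wells of about 40 µL received 100 nL stock; the first replicate is given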
T cruzi inh = blocks replication of Trypanosoma cruzi | T. cruzi beta-gal in NIH3T3, luminescence, 90 h | 300,000 tested, 1.4% active | inhibition, % (test concentration not listed);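 active = mean inhibition across valid replicates above about 55%, limit read from the data; inconclusive = mean below that limit but half or more replicates reach it; inactive = mean below it, under half of replicates reach it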;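 also: signal also drops with host cell toxicity which is not excluded here; 0% = plate median of DMSO wells and 100% = zero luminescence signal; higher percent means less beta-gal luminescence so fewer parasites; stock transfer was 50 nL into about 50 µL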
A1 inh = inhibitors of the anti-apoptotic protein A1, read as caspase activation; MEF A1-2A-BIM cells, Caspase-Glo 3/7 luminescence, 3 h; percent of clofoctol response, vehicle zero; caspase activation, % (concentration not given with the values); 330,000 tested, 0.066% active; AID 2462;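 active = over half of replicate activation scores above 10%, or exactly half above 10 with the replicate mean above 10; inconclusive = replicate mean below 10 yet half the replicates above 10; inactive = over half of replicates below 10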;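 also: wells of about 30 µL received 50 nL stock; many hits fall short of the cut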
B2AR ag = agonists of human beta-2 adrenergic receptor inducing internalization | P07550 | Am2.2-beta2AR cells, FAP receptor internalization, flow cytometry; reference of the scale not given here | response, % (concentration not given with the values) | 340,000 tested, 0.43% active | AID 504454;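 active = response above a set limit, near 3 SD of response in nonfluorescent compounds, cut at about 42% in these data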;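 also: stock transfer was 100 nL into about 11 µL; a reference agonist was the positive control; negative values mostly stem from fluorescent compounds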
Target sequence (P07550 whole entry, looked up): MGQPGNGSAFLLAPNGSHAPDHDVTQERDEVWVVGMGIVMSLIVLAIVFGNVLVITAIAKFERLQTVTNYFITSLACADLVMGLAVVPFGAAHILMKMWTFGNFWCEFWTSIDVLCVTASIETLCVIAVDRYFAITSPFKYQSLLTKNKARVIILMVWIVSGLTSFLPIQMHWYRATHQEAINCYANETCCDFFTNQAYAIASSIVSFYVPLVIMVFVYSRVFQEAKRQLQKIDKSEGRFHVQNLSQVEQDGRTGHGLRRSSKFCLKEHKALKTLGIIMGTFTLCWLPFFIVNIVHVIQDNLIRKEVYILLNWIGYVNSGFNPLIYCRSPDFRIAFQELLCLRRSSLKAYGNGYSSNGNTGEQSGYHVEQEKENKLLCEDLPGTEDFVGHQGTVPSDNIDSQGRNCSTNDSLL
UCH37 DUB inh = human UCH37 deubiquitinating enzyme inhibition. purified proteasome/UCH37, Ub-AMC cleavage fluorescence. 330,000 tested, 0.33% active. AID 588478. inhibition, % (no concentration beside the values);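 active = mean of two replicates above 20%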;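 also: 0% = compound-free wells with enzyme and 100% = wells lacking proteasome; stock transfer was 100 nL into about 20 µL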
Target sequence (Q9Y5K5 whole entry, looked up): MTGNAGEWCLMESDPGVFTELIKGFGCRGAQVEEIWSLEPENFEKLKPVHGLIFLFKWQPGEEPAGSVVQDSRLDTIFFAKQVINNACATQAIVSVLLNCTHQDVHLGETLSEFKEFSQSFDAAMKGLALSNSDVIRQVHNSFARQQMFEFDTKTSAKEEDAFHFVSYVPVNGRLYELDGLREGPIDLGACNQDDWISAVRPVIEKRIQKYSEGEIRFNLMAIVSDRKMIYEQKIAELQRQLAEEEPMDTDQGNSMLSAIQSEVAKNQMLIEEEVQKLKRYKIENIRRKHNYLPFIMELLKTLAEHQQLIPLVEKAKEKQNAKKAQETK
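system = Proteasome-associated human UCH37 deubiquitinase | amount = 0.15 nM proteasome as dispensed | medium = pH 7.4 Tris-HCl (50 mM) with ovalbumin, ATP-MgCl2, DTT | incubation = 30 min preincubation with enzyme, 25 min cleavage at room temperature | detection = AMC fluorescence 355/460 nm | read-out basis = percent inhibition | controls = no-proteasome and no-compound wells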
RanGTP-Impb inh = disruptors of Ran-importin-beta complex formation – biochemical, FRET, CFP-Ran, YFP-importin-beta, homogeneous, primary screen; inhibition, % (concentration not given with the values); AID 2216; cell-free CFP-Ran/YFP-importin-beta FRET ratio; 300,000 tested, 1.1% active;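 active = most replicates above 15%; inconclusive = exactly half above 15%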;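 also: 0% = DMSO wells and 100% = Ran loaded with GDP instead of GTP; wells of about 40 µL received 100 nL stock; the first replicate is given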
Calb FLC = affects C. albicans growth with fluconazole | growth inhibition, % (no concentration beside the values) | C. albicans CaCi-2 (fluconazole-resistant clinical isolate) + fluconazole, Alamar Blue growth, 48 h | 300,000 tested, 0.57% active;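 active = most replicates above 75%; inconclusive = exactly half above 75%; inactive = most below 75%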;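 also: all wells also contain fluconazole at 8 µg/ml as a sub-toxic cotreatment; 0% = median of DMSO wells and 100% = median of geldanamycin control wells; wells of about 8 µL received 7.5 nL stock; the first replicate is given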
Active calls of the source: *; ? = inconclusive; . = not tested or not shown. Random draw from the library. About 4.3% of those tested had a hit in this group.

SMILES	LANA-H2A inh	Beta cell apopt	T cruzi inh	A1 inh	B2AR ag	UCH37 DUB inh	RanGTP-Impb inh	Calb FLC
COc1ccccc1C(=O)C1CCCN(C(=O)c2ccccc2C(C)=O)C1 (stereo unspecified)	.	.	-2.3	.	1.4	4.3	-5.1	-8.0
Cc1nc(NC(=O)COC(=O)[C@@H](NC(=O)c2ccco2)C(C)C)c(Cl)cc1Cl	-3.4	-1.3	.	0.5	-5.6	0.8	.	.
O=C(NCC1OCCc2ccccc21)c1cc(COc2c(F)cccc2F)on1 (stereo unspecified)	-4.0	.	23.8	-0.9	0.1	-0.2	1.5	-0.6
CCOC(=O)c1nn(-c2ccc(Cl)cc2)c2nnc(Cc3ccccc3)c(=O)n12	1.8	4.0	-3.9	-0.4	-1.1	2.5	1.7	-1.8
N=c1c(C(=O)NCCc2ccccc2)cc2c(=O)n3ccccc3nc2n1Cc1ccco1	-0.9	.	11.2	3.0	-6.0	-31.8	73.7*	2.7
COc1ccccc1-c1nc(COc2ccc(Cl)cc2Cl)no1	1.7	-5.7	17.9	0.5	1.3	4.9	0.5	-1.6
CC(OC(=O)c1cc2sccc2n1C)C(=O)NCc1cccs1 (stereo unspecified)	7.3	-3.4	4.9	-0.9	-23.6	3.0	8.8	-6.1
CC(C)NC(=O)COC(=O)c1ccccc1CSC1=NCCS1	3.7	-5.2	2.2	-0.2	-7.8	2.2	3.3	-0.4
O=C(Cn1cnc2cc([N+](=O)[O-])ccc2c1=O)Nc1ccc(N2CCOCC2)cc1	2.9	7.6	19.0	-0.3	-9.9	3.5	0.7	2.2
CCOC(=O)CSc1nc2c(sc(=S)n2-c2ccccc2OC)c(=O)n1-c1ccccc1OC	0.4	-3.1	-11.4	-0.7	9.8	3.1	1.6	8.1
CCCCN(CC)C(=O)c1cc2cc3ccc(Cl)cc3nc2o1	-6.3	-3.3	14.7	0.9	10.7	5.9	-0.2	5.1
COc1ccc(NS(=O)(=O)c2ccc(NC(=O)c3ccc(CN4CCOCC4)cc3)cc2)cc1	-6.8	12.5	-34.0	?	9.6	5.4	-3.8	18.1
COc1ccc(N2CCN(C(=O)C3CCN(S(=O)(=O)c4ccc(F)cc4)CC3)CC2)cc1	-3.4	4.1	-2.0	0.1	-0.6	2.1	-2.6	6.3
COc1ccc(CCC(C)NCCc2ccc(Cl)cc2Cl)cc1 (stereo unspecified)	-5.9	-2.2	42.2	2.3	5.3	5.5	-0.3	-9.9
Cc1cc(O)c(NC(=O)c2cc([N+](=O)[O-])ccc2Cl)cc1C	3.5	0.8	1.1	-0.1	0.0	6.0	-0.3	30.7
CN1C(=S)SC(/[N+]([O-])=C\c2ccccc2)C1(C)C (stereo unspecified)	1.6	-5.3	0.4	0.3	2.8	5.5	-3.3	-1.6
O=S(=O)(NCCSc1ccc(Cl)cc1)c1ccc(F)cc1	-6.6	-5.1	-18.9	0.3	-1.4	-0.3	7.2	5.9
O=C(Cn1c(=O)c2ccccc2n(CC(=O)N2CCCCC2)c1=O)N1CCCCC1	2.8	-5.4	0.1	-0.5	3.6	-3.4	3.6	-7.8
CCN(CC)S(=O)(=O)c1ccc(C)c(NC(=O)Cc2ccc(S(=O)(=O)N3CCOCC3)s2)c1	-1.8	0.8	18.8	-0.3	-4.7	3.5	1.5	2.8
O=C(Cn1c(C(F)(F)F)nc2ccccc21)Nc1ccccc1N1CCOCC1	-6.8	-2.0	0.2	0.2	-5.8	-0.8	-0.6	-3.4
COc1ccc(N=C2SCC(c3ccc(C)cc3)=NN2CCO)cc1	-4.4	-1.9	-3.7	-0.2	4.9	0.4	-3.2	-7.8
CS(=O)(=O)N(CCc1ccccc1)CC(=O)N1CCc2ccccc2C1	-0.5	-1.3	3.2	0.6	-14.3	1.8	0.2	-3.0
O=C(C1CCCCC1)N1CCN=C1SCc1cccnc1	7.6	.	0.8	0.2	0.9	-1.3	0.0	1.2
O=C(Cc1ccccc1)NCC(=O)OCC(=O)c1cccs1	0.5	-8.7	-14.6	2.4	-4.5	1.9	6.4	-3.5
CCOc1ccc(S(=O)(=O)NCC(=O)OCc2nnc(-c3ccccc3)o2)cc1	7.1	-3.3	.	0.3	-1.2	0.0	.	.
SMILES	LANA-H2A inh	Beta cell apopt	T cruzi inh	A1 inh	B2AR ag	UCH37 DUB inh	RanGTP-Impb inh	Calb FLC
O=C(/C=C/c1ccccc1)NC(=S)Nc1ccccc1	-6.6	-6.3	-10.8	0.3	-5.8	4.1	0.6	5.9
C/C(=N\O)C(=O)NCCN(C)C	6.5	-7.1	-11.0	0.7	4.9	.	4.6	1.9
COc1cc(C(=O)OCC(=O)NC(=O)c2cccn2C)ccc1OC(F)F	-2.7	-4.5	-1.6	-0.8	5.0	-3.3	-3.4	10.6
CC1Cc2ccccc2N1Cc1cc(=O)c(OCC(=O)NCCc2ccccc2)co1 (stereo unspecified)	-0.6	.	6.0	-0.7	3.6	2.5	-2.3	3.9
COc1ccc(N(CN2C(=O)C3C4C=CC(C4)C3C2=O)C(=O)c2ccco2)cc1 (stereo unspecified)	-1.6	-4.3	.	-0.2	-7.9	4.5	.	.
Cn1cc(CNCCN2CCCCC2=O)c(-c2cccc(Cl)c2)n1	1.1	-3.0	-6.3	0.5	-0.1	0.4	-4.5	-4.8
Cc1nc2ccccn2c1-c1csc(Nc2ccc(C(=O)O)cc2)n1	-3.7	19.9	-2.8	0.2	-14.6	-5.2	3.0	1.4
COc1ccc(-n2c(-c3ccc(Br)cc3)nc(=S)c3c2CCCC3)cc1	-1.0	6.6	24.3	-0.4	0.1	7.1	-1.2	-7.8
CCc1cc(C(=O)NNC(=S)Nc2cc(C)ccc2C)cs1	2.8	3.5	5.2	-1.2	5.5	-0.6	0.1	99.1*
COC(=O)[C@@H](N)Cc1ccc(O)c(O)c1	2.8	-9.2	.	-7.0	14.9	2.7	.	.
Cc1cc(C(F)F)n2ncc(C(=O)N3CCC(C(N)=O)CC3)c2n1	-1.6	-1.7	-1.2	0.6	-2.4	-1.1	2.8	-27.7
O=C(Nc1ccc2c(c1)OCCO2)C1CC(O)CN1C(=O)Nc1ccccc1 (stereo unspecified)	1.0	-1.1	-5.2	-0.7	11.3	2.4	?	0.0
CCOc1ccc(Oc2c(/C=N/NC(N)=O)c(C)nn2-c2ccccc2)cc1	2.0	-3.1	-11.2	1.2	-2.1	.	0.3	18.6
CCn1cc([N+](=O)[O-])c(=O)c2cc(F)c(N3CCOCC3)cc21	2.9	0.0	1.2	1.4	8.8	-25.5	1.9	5.7
COc1cc(NC(=O)C/C(C)=N/NC(=O)Cc2ccc(Cl)cc2)c(OC)cc1Cl	5.1	-1.9	-14.0	-1.4	1.2	.	1.6	-6.3
COc1ccccc1S(=O)Cc1ccc(C(=O)O)o1 (stereo unspecified)	0.5	-2.3	-4.6	1.1	-3.9	2.0	20.4*	-19.4
Cc1cccc(NC(=S)NNC(=O)c2csc(C(C)C)c2)c1	-2.1	-1.4	5.9	-0.5	-6.7	3.5	2.6	92.1*
O=C(c1cccs1)N(C(=O)c1cccs1)c1ccc(Br)cn1	-0.8	13.4	-8.3	-0.9	-3.2	3.1	2.0	4.5
Cc1ccc(NC(=O)c2cc3ccccc3o2)cc1Cl	-0.8	1.7	11.3	-4.8	5.1	4.9	5.0	-1.3
O=C(CCN1C(=O)S/C(=C\c2ccccc2)C1=O)N1CCCCC1	-2.8	3.6	23.7	1.1	-7.7	7.3	3.4	0.5
CC1(C)Cc2ccccc2-c2nnc(-c3cccnc3)n21	0.3	-2.8	-19.1	0.4	8.9	4.8	-0.3	2.7
COc1ccc(NC(=O)CN2CCN(c3c(C)cccc3C)CC2)cc1	-2.7	3.3	30.1	0.4	2.9	4.9	2.9	-0.3
O=S(=O)(c1ccccc1)c1nc(-c2ccc(F)cc2)oc1N1CCOCC1	0.4	1.9	13.5	0.1	-9.9	1.8	1.6	-0.4
Nc1cccc(-n2nncc2-c2ccccc2)c1	-2.2	1.1	3.3	-0.6	6.3	1.1	0.1	2.2
COc1ccc(Cn2nnnc2C(C(C)C)N2CCc3ccccc32)cc1 (stereo unspecified)	4.2	1.1	21.8	-0.2	5.3	2.3	8.5	2.0
SMILES	LANA-H2A inh	Beta cell apopt	T cruzi inh	A1 inh	B2AR ag	UCH37 DUB inh	RanGTP-Impb inh	Calb FLC
CCOc1ccc(NC(=O)Nc2cccc(C)n2)cc1	4.5	3.4	6.2	-5.9	10.1	4.5	-4.6	6.9
NC(=O)C1=NOC(CNc2ncc(C(F)(F)F)cc2Cl)C1 (stereo unspecified)	-0.7	-2.4	-0.8	0.6	5.0	-0.1	4.3	4.7
Cc1ccc(NC(=O)CCc2c(C)nn(-c3ccc(N4CCOCC4)nn3)c2C)cc1C	5.5	2.0	38.5	-1.1	-1.5	2.0	5.3	-0.4
O=C(NC1=NCCS1)C1CC(=O)N(c2ccccc2)C1 (stereo unspecified)	1.2	-19.5	1.4	-0.5	3.7	1.2	-2.8	54.2
Cc1onc(-c2c(F)cccc2Cl)c1C(=O)c1ccc(F)cc1	-6.9	0.1	-0.9	0.1	7.6	1.4	4.3	-4.4
CC1CCN(S(=O)(=O)c2ccc3c(c2)N(CC(=O)NCCCN2CC(C)CC(C)C2)C(=O)CS3)CC1 (stereo unspecified)	3.1	-4.2	36.7	-1.0	4.3	1.0	1.3	1.1
Cn1cc(S(=O)(=O)N2CCC3(CC2)OCCO3)c(=O)n(C)c1=O	-3.2	-3.0	-5.2	-0.3	4.7	2.6	7.0	8.9
CCn1c(SCC(=O)NNC(=O)c2ccco2)nnc1-c1ccco1	-1.4	-1.6	7.8	-0.4	2.3	4.1	-2.6	-3.5
COc1ccccc1OCCSc1nc(N)cc(N)n1	-1.7	4.4	-2.9	-1.5	1.1	-0.5	-2.0	10.2
Cc1c(Cl)c([N+](=O)[O-])nn1CCCC(=O)Nc1cccnc1	1.5	-2.8	15.0	0.1	4.3	3.9	0.7	-4.2
Cn1c(N)c(C(=O)COC(=O)c2ccc(OC(F)F)cc2)c(=O)n(C)c1=O	-2.8	-8.5	.	-0.5	-7.7	0.9	.	.
O=C(Oc1ccc2ccc(=O)oc2c1)C1CCCCC1	0.4	-11.2	-6.5	-0.1	10.8	-449.0	3.8	0.5
Cc1ccc(C)c(-n2c(SCC(=O)N3CCCC3)nnc2-c2ccccn2)c1	-0.4	-7.1	-5.8	0.0	-7.3	0.8	-1.3	5.4
O=C(NCCN1CCN(C(=O)NC2CCCCC2)CC1)NC1CCCCC1	-0.9	-9.9	-20.8	0.6	-8.6	1.1	2.6	-4.5
Cc1cc(=O)nc2c3ccccc3n(C(C)C(=O)Nc3cc(F)ccc3F)n12 (stereo unspecified)	0.4	-6.6	2.6	1.4	5.3	-0.2	7.8	-9.0

Complete entries, looked up by structure. Order of values: LANA-H2A inh | Beta cell apopt | T cruzi inh | A1 inh | B2AR ag | UCH37 DUB inh | RanGTP-Impb inh | Calb FLC
COc1ccccc1OCCSc1nc(N)cc(N)n1 across the screens: -1.7 | 4.4 | -2.9 | -1.5 | 1.1 | -0.5 | -2.0 | 10.2
CCOc1ccc(NC(=O)Nc2cccc(C)n2)cc1 across the screens: 4.5 | 3.4 | 6.2 | -5.9 | 10.1 | 4.5 | -4.6 | 6.9
